Screening data from PubChem BioAssay.
GIV-Gai inh: inhibitors of GIV peptide binding to Galpha-i3, primary screen, biochemical, fluorescence polarization, FITC-GIV GBA peptide, rat Galphai3; 90 min; hits give low values; scaled: aluminum fluoride 0%, vehicle 100%; percent of control (FP), % (no concentration beside the values); 210,000 tested, 0.42% active; AID 1224905, 2016;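 active = replicate mean at 85% of control or lower, very high polarization wells dropped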;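 also: wells of about 15 µL received 100 nL stock; the first replicate is given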
Target sequence (P08753 whole entry, looked up): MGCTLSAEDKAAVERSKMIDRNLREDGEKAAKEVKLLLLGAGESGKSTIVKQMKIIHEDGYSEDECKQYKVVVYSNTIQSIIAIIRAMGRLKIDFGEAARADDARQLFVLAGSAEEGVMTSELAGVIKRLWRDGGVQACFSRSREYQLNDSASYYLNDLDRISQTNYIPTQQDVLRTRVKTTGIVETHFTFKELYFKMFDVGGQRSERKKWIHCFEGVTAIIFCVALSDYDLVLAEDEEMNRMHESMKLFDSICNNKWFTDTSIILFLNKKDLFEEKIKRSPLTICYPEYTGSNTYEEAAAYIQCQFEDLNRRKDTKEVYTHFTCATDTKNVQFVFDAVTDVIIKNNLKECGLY
HCMV UL50-53 inh: inhibitors of HCMV UL50-UL53 interaction, biochemical, HTRF; AID 1918969, 2023; HCMV UL50-UL53 nuclear egress complex (human cytomegalovirus); normalized percent inhibition; 190,000 tested, 0.15% active; inhibition, % (no concentration beside the values);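 active = both replicates at 50% or more, plus weaker picks with an unusually low signal ratio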;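 also: stock transfer was 100 nL into about 20 µL; 0% = negative control wells and 100% = wells with untagged competitor protein; inactives centre near -12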
An asterisk follows results filed as active; x = not tested or not shown; & = joins results of further samples. A portion of the library (hit frequency here may not be typical).

Every second line gives: GIV-Gai inh, HCMV UL50-53 inh
> Cc1cccc(N2CCN(C(=O)CCc3nc(C4=CCN(C)CC4)no3)CC2C)c1 (stereo not drawn)
 : 108, x
> COC(=O)C1C2c3ccccc3O[C@]1(C)N=c1s/c(=C/c3ccc(F)cc3)c(=O)n12 (stereo partly drawn)
 : 110, x
> O=C(COc1ccc(F)cc1)N1CCN(Cc2cc(=O)n3nc(-c4ccc(F)cc4)sc3n2)CC1
 : 104, x
> O=C1Nc2ccccc2NC12CCNCC2
 : 111, x
> CCCC(=O)N1CCC2(C1)C(=O)Nc1ccc(OC)cc12 (stereo not drawn)
 : 107, x
> O=C(CCc1nc(C2=CCN(Cc3ccc(Cl)cc3)CC2)no1)Nc1cccc(Cl)c1
 : 103, x
> O=[N+]([O-])c1ccccc1SC1CC2C(c3ccc(F)cc3)Nc3c(ccc(Cl)c3Cl)C2C1Cl (stereo not drawn)
 : 104, x
> Cc1cc(Cc2cc(C)c(N)c(C)c2)cc(C)c1N
 : x, -13
> C=CC[C@@]1(O)CC[C@H]2[C@@H]3CCC4=CC(=O)CCC4=C3C=C[C@@]21C
 : x, -83
> CN(C)CCN(C)CCc1ccc(Cl)c(Cl)c1
 : x, -8
> C[C@]12CCC3C4CCC(=O)C=C4CCC3C1CCC2O (stereo partly drawn)
 : x, -51
> CC[C@@]1(O)C(=O)OCc2c1cc1n(c2=O)-c2cc3ccccc3nc2C1
 : x, -75
> C[C@@H]1CN(C2CCC(C#N)(c3ccc(F)cc3)CC2)CC[C@]1(C(=O)O)c1ccccc1 (stereo partly drawn)
 : x, -8
> CC(C)n1cnc2c(C(=O)N[C@H]3CN4CCC3CC4)cc(Cl)cc21
 : x, 6
> O=c1ccc2cc(OC3OC(CO)C(O)C(O)C3O)c(O)cc2o1 (stereo not drawn)
 : x, -66
> CCCCC/C=C\C/C=C\C/C=C\C/C=C\CCCC(=O)NCC(=O)O
 : x, -20&-20&-12
> CCn1cc(C(=O)O)c2ccccc21
 : x, 0
> CCC1(c2cccc(O)c2)CCCCN(C)C1 (stereo not drawn)
 : x, -19&-34
> C[C@@H]1O[C@@H](O[C@@H]2C=C3CCC4C(CC[C@]5(C)[C@@H](c6ccc(=O)oc6)CC[C@]45O)[C@@]3(C)CC2)[C@H](O)[C@H](O)[C@H]1O (stereo partly drawn)
 : x, -25
> CN1CCN(c2ccc(C(F)(F)F)cc2N)CC1
 : x, -4
> Nc1nc(N)nc(NC2CC2)n1
 : x, -13&-62
> COc1ccc(CCNCC2CCCO2)cc1 (stereo not drawn)
 : x, 0
> FC(F)(F)c1cccc(C2=CCN(CCc3ccc4ccccc4c3)CC2)c1
 : x, 4
> C=C1[C@@H](O)[C@]23C[C@@H]1[C@@H](O)C[C@H]2[C@@]12C4[C@@H]3C[C@@H]1[C@@](C)(CC[C@@H]2O)CN4CC
 : x, -21
> CN[C@@H]1[C@@H](O)[C@@H](O[C@@H]2[C@@H](O)[C@H](O[C@H]3O[C@H]([C@@H](C)NC)CC[C@H]3N)[C@@H](N)C[C@H]2N)OC[C@]1(C)O (tested in a mixture with another compound)
 : x, -2
> COC(=O)CN1CN(c2ccccc2)C2(CCN(Cc3ccc4ccccc4c3)CC2)C1=O
 : x, -8
> CCCCC/C=C\C/C=C\C/C=C\C/C=C\CCCC(=O)Nc1ccc([N+](=O)[O-])cc1
 : x, -23&-23
> Cn1cc(C(=O)O)c2ccccc21
 : x, 8
> C=C[C@H]1CN2CCC1C[C@H]2C(O)c1ccnc2ccccc12 (stereo partly drawn)
 : x, -9
> Oc1cc2c(cc1O)C1c3ccccc3CNC1CC2 (stereo not drawn)
 : x, -21

2 of the compounds above, bar-delimited:
SMILES | GIV-Gai inh | HCMV UL50-53 inh
O=c1ccc2cc(OC3OC(CO)C(O)C(O)C3O)c(O)cc2o1 (stereo not drawn) | x | -66
CCCCC/C=C\C/C=C\C/C=C\C/C=C\CCCC(=O)NCC(=O)O | x | -20&-20&-12

One compound at a time, as listed above. Values in the order: GIV-Gai inh | HCMV UL50-53 inh
Results for C[C@]12CCC3C4CCC(=O)C=C4CCC3C1CCC2O (stereo partly drawn) = x | -51
Results for CC[C@@]1(O)C(=O)OCc2c1cc1n(c2=O)-c2cc3ccccc3nc2C1 = x | -75

Further records
Every second line gives: GIV-Gai inh, HCMV UL50-53 inh
> CCCCCCC(=O)O[C@H]1CC[C@H]2[C@@H]3C[C@@H](O)C4=CC(=O)CC[C@]4(C)[C@H]3CC[C@]12C
 : x, -20&-20
> CNC1CC(c2ccc(Cl)c(Cl)c2)c2ccccc21 (stereo not drawn)
 : x, -76
> CC1(C)C(C=C(Cl)Cl)C1C(=O)OC(C#N)c1cccc(Oc2ccccc2)c1 (stereo not drawn)
 : x, 9&-19
> O=C(NCNC(=O)NC1C(=O)NC(=O)N1CO)NC1C(=O)NC(=O)N1CO (stereo not drawn)
 : x, -21
> O[C@H]1[C@H]2[C@H](O)CCCN2C[C@H]1O
 : x, -16
> CCCCCCCCCCCCCCCC(=O)OC[C@H](COP(=O)([O-])OCC[N+](C)(C)C)OC(=O)CCCC=O
 : x, -1&-1
> CCOP(=S)(OCC)Oc1cc(C)nc(C(C)C)n1
 : x, -46
> O=C1NC(=O)C(=Cc2ccc(-c3ccc([N+](=O)[O-])cc3)o2)C(=O)N1
 : x, -18
> CCNC(=O)[C@H]1O[C@@H](n2cnc3c(N)ncnc32)[C@@H](O)C1O (stereo partly drawn)
 : x, -14
> CCC(=O)N1CC(=O)Nc2ccc(Br)cc2C1c1ccccc1 (stereo not drawn)
 : x, 1
> O=C(CCCN1CCC(n2c(=O)[nH]c3ccccc32)CC1)c1ccc(F)cc1
 : x, -9
> N#CC(OC1OC(COC2OC(CO)C(O)C(O)C2O)C(O)C(O)C1O)c1ccccc1 (stereo not drawn)
 : x, -3
> CN=C(NS(=O)(=O)c1ccc(Cl)cc1)N1C[C@H](c2ccccc2)C(c2ccc(Cl)cc2)=N1
 : x, -23&-23
> CC1CN(Cc2c(-c3ccccc3)nc3ccc(Cl)cn23)CC(C)O1 (stereo not drawn)
 : x, -3
> CC(=O)N1CC(=O)Nc2ccc(F)cc2C1c1ccc(F)cc1 (stereo not drawn)
 : x, -4
> O=C(O)Cc1cccnc1C(=O)O
 : x, 6
> CC(=O)NCC(=O)Nc1ccc(Br)cc1C(=O)c1ccccc1
 : x, -13
> CCCCC/C=C\C/C=C\C/C=C\C/C=C\CCCC(=O)NC
 : x, -21&-21
> CCN1CCN(C(=O)Cc2ccc(Nc3ncc(F)c(Nc4ccc(C(=O)Nc5ccccc5Cl)cc4)n3)cc2)CC1
 : x, 34&0&-2&-1&2
> Cn1cc(C2=C(c3cn(C4CCN(Cc5ccccn5)CC4)c4ccccc34)C(=O)NC2=O)c2ccccc21
 : x, -8&-8&-7&-9&-6
> COc1ccc(NC2(C#N)CCCCC2)cc1
 : x, -5
> CC(CCCC(C)(C)O)CCNC(C)Cc1ccsc1 (stereo not drawn)
 : x, -5
> COC1(C[S@@](=O)c2ccccc2)CCN(CCc2c[nH]c3ccc(F)cc23)CC1
 : x, -6
> C=C1[C@@H]2CC[C@H]3[C@]4(C)C[C@H](O[C@H]5O[C@H](CO)[C@@H](OS(=O)(=O)O)[C@H](OS(=O)(=O)O)[C@H]5OC(=O)CC(C)C)C[C@@H](C(=O)O)[C@H]4CC[C@]3(C2)[C@H]1O
 : x, -7
> COc1ccc(CC2c3cc(OC)c(OC)cc3CCN2C)cc1OC (stereo not drawn)
 : x, -9
> CN1CCN(c2nc3ccccc3nc2Cl)CC1
 : x, -27
> Cc1ccccc1-n1c(Cn2cnc3c(N)ncnc32)nc2cccc(C)c2c1=O
 : x, -20&-21&-18
> CN1c2ccccc2C(NCCCCCCC(=O)O)c2ccc(Cl)cc2S1(=O)=O (stereo not drawn)
 : x, -5&-23
> C[C@H](N)C(=O)N[C@@H](C)C(=O)N[C@@H](Cc1ccccc1)C(=O)CCl
 : x, -2
> CC(C)(O)[C@H]1O[C@H]2CC[C@@]3(C)[C@@](O)(CC[C@H]4Cc5c([nH]c6ccccc56)[C@@]43C)C2=CC1=O
 : x, -16

> O=C1NC(=O)C(=Cc2ccc(-c3ccc(Cl)cc3)o2)C(=O)N1
  GIV-Gai inh = x
  HCMV UL50-53 inh = -2
> CCCCC/C=C\C/C=C\C/C=C\C/C=C\CCCC(=O)NCc1ccoc1
  GIV-Gai inh = x
  HCMV UL50-53 inh = -6&-6
> CCCCCc1cc(O)c2c(c1)OC(C)(C)[C@@H]1CCC(C(=O)O)=CC21 (stereo partly drawn)
  GIV-Gai inh = x
  HCMV UL50-53 inh = -6
> CCCCC/C=C\C/C=C\C/C=C\C/C=C\CCCC(=O)NCCO
  GIV-Gai inh = x
  HCMV UL50-53 inh = -13&-13&-6
> c1ccc2c(c1)Sc1ccccc1N2CC1CN2CCC1CC2 (stereo not drawn)
  GIV-Gai inh = x
  HCMV UL50-53 inh = -14
> CN1CCN(C(=O)COc2ccc(Oc3ccccc3)cc2)CC1
  GIV-Gai inh = x
  HCMV UL50-53 inh = -8
> CCC[C@@H]1CC2=CC(=O)CC[C@]2(C)[C@H]2CC[C@@]3(C)[C@@H](CC[C@@]3(O)CCC(=O)O)[C@H]12
  GIV-Gai inh = x
  HCMV UL50-53 inh = 0
> CC(=Cc1csc(C)n1)C1CC2O[C@]2(C)CCCC(C)C(O)C(C)C(=O)C(C)(C)C(O)CC(=O)O1 (stereo partly drawn)
  GIV-Gai inh = x
  HCMV UL50-53 inh = -1
> CCCCC/C=C\C/C=C\C/C=C\C/C=C\CCCC(=O)O[C@H](COC(=O)CCCCCCCCCCCCCCCCC)COP(=O)([O-])OCC[N+](C)(C)C
  GIV-Gai inh = x
  HCMV UL50-53 inh = -4&-4
> CN1C(=O)[C@]23CC4=CC=C[C@H](O)[C@H]4N2C(=O)[C@@]1(CO)SS3
  GIV-Gai inh = x
  HCMV UL50-53 inh = 55*
> CC1CCCC(O)CCCCCc2cc(O)cc(O)c2C(=O)O1 (stereo not drawn)
  GIV-Gai inh = x
  HCMV UL50-53 inh = -72
> COc1ccc(C[C@H]2NC[C@H](O)[C@H]2OC(C)=O)cc1
  GIV-Gai inh = x
  HCMV UL50-53 inh = -2&-21
> COc1ccccc1NC1(C#N)CCCCC1
  GIV-Gai inh = x
  HCMV UL50-53 inh = -4
> CCCCC/C=C\C/C=C\C/C=C\C/C=C\CCCC(=O)NOCCO
  GIV-Gai inh = x
  HCMV UL50-53 inh = -30&-30
> COc1cc(/C=C\c2ccc(OC)c(O)c2)cc(OC)c1
  GIV-Gai inh = x
  HCMV UL50-53 inh = -15&-15

The closing 7 entries of the section before lead into the next.
> CCCCC/C=C\C/C=C\C/C=C\C/C=C\CCCC(=O)O[C@H](COC(=O)CCCCCCCCCCCCCCCCC)COP(=O)([O-])OCC[N+](C)(C)C
  GIV-Gai inh = x
  HCMV UL50-53 inh = -4&-4
> CN1C(=O)[C@]23CC4=CC=C[C@H](O)[C@H]4N2C(=O)[C@@]1(CO)SS3
  GIV-Gai inh = x
  HCMV UL50-53 inh = 55*
> CC1CCCC(O)CCCCCc2cc(O)cc(O)c2C(=O)O1 (stereo not drawn)
  GIV-Gai inh = x
  HCMV UL50-53 inh = -72
> COc1ccc(C[C@H]2NC[C@H](O)[C@H]2OC(C)=O)cc1
  GIV-Gai inh = x
  HCMV UL50-53 inh = -2&-21
> COc1ccccc1NC1(C#N)CCCCC1
  GIV-Gai inh = x
  HCMV UL50-53 inh = -4
> CCCCC/C=C\C/C=C\C/C=C\C/C=C\CCCC(=O)NOCCO
  GIV-Gai inh = x
  HCMV UL50-53 inh = -30&-30
> COc1cc(/C=C\c2ccc(OC)c(O)c2)cc(OC)c1
  GIV-Gai inh = x
  HCMV UL50-53 inh = -15&-15
> Clc1cccc(SC2CCNCC2)n1
  GIV-Gai inh = x
  HCMV UL50-53 inh = 2
> CCCCC/C=C\C/C=C\C/C=C\C/C=C\CCCC(=O)NC(CO)CO
  GIV-Gai inh = x
  HCMV UL50-53 inh = -10&-10
> CCCN(CCC)[C@@H]1CCc2c(OC)cccc2[C@@H]1C
  GIV-Gai inh = x
  HCMV UL50-53 inh = -5
> CCCCC/C=C\C/C=C\C/C=C\C/C=C\CCCC(=O)N(C)C
  GIV-Gai inh = x
  HCMV UL50-53 inh = -14&-14
> CNS(=O)(=O)c1ccc(-c2ccc(C=C3C(=O)NC(=O)NC3=O)o2)cc1
  GIV-Gai inh = x
  HCMV UL50-53 inh = -24
> CCC1=C[C@@H]2CN3CCc4c([nH]c5ccccc45)[C@@](C(=O)OC)(C2)[C@@H]13
  GIV-Gai inh = x
  HCMV UL50-53 inh = 10&-15
> N#Cc1cnn(-c2ccc(Cl)cc2)c1N
  GIV-Gai inh = x
  HCMV UL50-53 inh = -19
> Cn1c2c(c3ccccc31)CCNCC2
  GIV-Gai inh = x
  HCMV UL50-53 inh = -5
> CC1OC(OC2CC(O)[C@]3(CO)[C@H]4C(O)C[C@]5(C)C(C6=CC(=O)OC6)CC[C@]5(O)[C@@H]4CC[C@]3(O)C2)C(O)C(O)C1O (stereo partly drawn)
  GIV-Gai inh = x
  HCMV UL50-53 inh = -9
